Assay outcomes as filed in PubChem.
RanGTP-Imp inh: inhibitors of RanGTP-importin-beta interaction, primary screen, biochemical, FRET, CFP-Ran, YFP-importin-beta, homogeneous; inhibition, % (concentration not given with the values); 300,000 tested, 1.1% active; cell-free CFP-Ran/YFP-importin-beta FRET ratio;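 active = most replicates above 15%; inconclusive = exactly half above 15%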;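 note: 0% = DMSO wells and 100% = Ran loaded with GDP instead of GTP; wells of about 40 µL received 100 nL stock; the first replicate is given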
ALR H2O2 inh: inhibitors of human ALR sulfhydryl oxidase, primary screen, biochemical, H2O2 detection, HRP-luminol luminescence, single point | 290,000 tested, 3.8% active | FAD-linked sulfhydryl oxidase ALR (Homo sapiens), P55789 | AID 485317, 2010 | inhibition, % (concentration not given with the values) | purified ALR, DTT oxidation;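 active = mean and each replicate at 75% or more; inconclusive = only one of the two met; inactive = neither met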;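 note: stock transfer was 7.5 nL into about 7.5 µL; 0% = neutral wells and 100% = wells with inactivated enzyme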
Target sequence (P55789 whole entry, looked up): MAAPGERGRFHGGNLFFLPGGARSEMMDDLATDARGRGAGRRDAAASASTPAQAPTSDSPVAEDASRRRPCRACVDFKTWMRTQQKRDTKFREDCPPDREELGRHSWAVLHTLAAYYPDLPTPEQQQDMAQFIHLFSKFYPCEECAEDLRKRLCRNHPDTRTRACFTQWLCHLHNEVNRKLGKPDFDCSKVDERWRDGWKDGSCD
Vif TR-FRET: inhibitors of Vif binding to APOBEC3G peptide, primary screen, biochemical, TR-FRET, GST-Vif 1-94, biotin-A3G peptide, dose response retest (AID 1117319); Virion infectivity factor (Human immunodeficiency virus type 1 group M subtype B (isolate …; TR-FRET GST-Vif / biotin-A3G peptide binding; higher % means a stronger effect; test concentration not given here; strong numbers were not always called active; inhibition, %; hits with a dose series show IC50 in µM; 260,000 tested, 0.57% active;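 active = above the screen mean plus three standard deviations and confirmed in dose response; inconclusive = results disagree or hit not tested in dose response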;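 note: Vif residues 1-94 fused to GST binding biotinylated APOBEC3G peptide 110-148; 0% = full assay without inhibitor and 100% = GST in place of GST-Vif; retest series ran down from 100 µM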
LANA-H2A inh: blockers of LANA interaction with H2A/H2B – biochemical, FP readout, HTS, primary screen; Protein LANA1 (Human herpesvirus 8 type P (isolate GK18)), Q9QR71; cell-free LANA-H2A/H2B peptide, fluorescence polarization; inhibition, % (concentration not given with the values); 320,000 tested, 0.6% active; AID 2629, 2010; in the data active = inhibition mostly above about 10%, no sharp cut-off; inactive = mostly below about 6.7%;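 note: stock transfer was 7.5 nL into about 10 µL; 0% = median of vehicle wells and 100% = median of positive control wells; one replicate is shown; the record names a cut of 25% in any replicate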
HNF4A DNA FP: change in binding of human HNF4A to DNA, primary screen, biochemical, fluorescence polarization, FITC-DNA. Hepatocyte nuclear factor 4-alpha (Homo sapiens), P41235. 1 h. activity change, % at 10 µM. 360,000 tested, 0.3% active. AID 1224865, 2016; in the data active = activity change above about 30%, passing the limit was not always enough;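 note: controls were the assay level and a saturating level of protein; the project sought stronger binding though the title names inhibitors; some compounds called inactive have numbers as strong as hits; positive values seem to mean higher polarization but the record does not say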
Calb FLC: C. albicans growth inhibition with fluconazole, primary screen, CaCi-2 strain, Alamar Blue fluorescence; 300,000 tested, 0.57% active; growth inhibition, % (test concentration not listed); C. albicans CaCi-2 (fluconazole-resistant clinical isolate) + fluconazole, 48 h; AID 1979, 2009;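 active = most replicates above 75%; inconclusive = exactly half above 75%; inactive = most below 75%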;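 note: all wells also contain fluconazole at 8 µg/ml as a sub-toxic cotreatment; 0% = median of DMSO wells and 100% = median of geldanamycin control wells; wells of about 8 µL received 7.5 nL stock; the first replicate is given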
Beta2AR agonist: beta2AR agonists driving receptor internalization, primary screen, cell-based, FAP fluorogen, flow cytometry. Beta-2 adrenergic receptor (Homo sapiens), P07550. Am2.2-beta2AR cells; reference of the scale not given here. response, % (no concentration beside the values). 340,000 tested, 0.43% active. AID 504454, 2011;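 active = response above a set limit, near 3 SD of response in nonfluorescent compounds, cut at about 42% in these data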;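 note: stock transfer was 100 nL into about 11 µL; a reference agonist was the positive control; negative values mostly stem from fluorescent compounds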
Target sequence (P07550 whole entry, looked up): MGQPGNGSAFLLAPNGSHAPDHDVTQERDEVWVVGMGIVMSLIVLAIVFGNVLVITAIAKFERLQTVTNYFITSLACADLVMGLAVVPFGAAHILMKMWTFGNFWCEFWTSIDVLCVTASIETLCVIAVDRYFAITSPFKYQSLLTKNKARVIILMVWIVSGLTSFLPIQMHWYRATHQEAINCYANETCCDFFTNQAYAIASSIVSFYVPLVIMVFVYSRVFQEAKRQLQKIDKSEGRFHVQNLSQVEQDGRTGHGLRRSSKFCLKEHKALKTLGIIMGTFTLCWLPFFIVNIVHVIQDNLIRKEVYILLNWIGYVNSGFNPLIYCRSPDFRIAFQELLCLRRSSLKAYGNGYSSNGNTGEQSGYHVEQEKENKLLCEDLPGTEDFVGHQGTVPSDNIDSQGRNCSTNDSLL
An asterisk follows results filed as active; u = inconclusive; x = no result given; & = joins results of further samples.

Values run as follows: Calb FLC	Vif TR-FRET	LANA-H2A inh	RanGTP-Imp inh	ALR H2O2 inh	HNF4A DNA FP	Beta2AR agonist
1) CCCCn1c(Cl)nc2c1c(=O)n(C)c(=O)n2C
  -5	u	3.6	1.1	-1	0.9	2
2) CN(Cc1cn(C)nc1-c1cccc(Cl)c1)C1CCOCC1
  18	x	-4.3	-1.5	1	-0.4	4
3) O=c1oc2ccccc2c2c1nc(C(F)(F)F)n2-c1ccccc1
  -19	-5%	3.9	u	-18	-3.6	8
4) CC(C)C(=O)NN1c2ccccc2CCc2ccccc21
  -9	24%	-2.4	3.7	0	6.4	0
5) CCn1c(-c2c[nH]c3ccccc23)n[nH]c1=S
  9	2%	1.4	-0.4	55	-0.7	8
6) Cn1c(Cc2cccs2)nnc1SCC(=O)Nc1ccc(F)cc1F
  1	2%	-4.4	1.4	0	-2.9	-7
7) O=C(COc1ccc(-c2ccccc2)cc1)N1CCN(S(=O)(=O)Cc2ccccc2)CC1
  -6	-5%	-2.0	-6.5	-18	-0.4	-6
8) CCN(CC)CCNc1cc(C)c(C#N)c2nc3ccccc3n12
  7	4%	16	11	-40	-2.0	-8
9) Clc1ccc(-c2cnn3c(-c4ccncc4)ccnc23)cc1
  -2	-10%	0.3	3.2	-5	2.8	-1
10) Cc1ncc(CO)c2c1Oc1nc(-c3ccccc3)nc(SCC(=O)N3CCOCC3)c1C2
  -31	x	0.3	-2.4	11	-0.3	14
11) CCN1CCN(c2ccc(NC(=O)c3cc(S(=O)(=O)N4CCCC4)ccc3Cl)cc2)CC1
  x	2%	-1.2	x	-6	12	-9
12) Brc1cccc(-c2cnc3n2CCCCC3)c1
  -5	1%&-1%	-3.0	6.4	-4	-0.5	1
13) Cn1c(N)c(C(=O)COC(=O)C2CC(=O)N(Cc3ccccc3)C2)c(=O)n(C)c1=O (stereo not given)
  -1	3%	5.3	0.8	-5	0.9	4
14) Cc1nc(-c2ccncc2)sc1C(=O)Nc1ccc(Cl)cc1
  -1	-5%	-5.0	-1.2	-13	0.2	0
15) COc1ccc(C2C3CCCCC3(O)CCN2C(=O)c2cccs2)cc1 (stereo not given)
  -8	x	-1.6	-3.7	-16	-1.9	3
16) CC(=O)c1ccc(S(=O)(=O)Nc2cc3c(cc2C(C)=O)OCO3)cc1
  -4	x	3.2	-3.7	-8	-0.9	-1
17) CC(C)n1ncc2c(C(=O)NCCc3ccc(S(N)(=O)=O)cc3)cc(C3CC3)nc21
  x	2%	x	x	x	1.7	5
18) O=C(COC(=O)/C=C/c1ccc(Cl)cc1)NC1CC1
  x	x	-1.5	x	-1	-0.3	-8
19) Cc1cc(C)n2nc(S(=O)(=O)NC(C)(C)C)nc2n1
  -13	-5%	-0.1	-4.3	0	0.2	-13
20) CC(=O)Nc1ccc(NC(=O)CCn2nnc3ccccc32)cc1
  -2	x	3.9	-1.7	-2	1.8	7
21) O=C(N/N=C/c1cc2ccccc2nc1Cl)/C(=C/c1cccs1)NC(=O)c1ccccc1
  18	-3%	1.2	-0.7	-3	47*	-1
22) COc1ccccc1C1CCCN1Cc1nc(-c2ccc(C)s2)oc1C (stereo not given)
  1	-3%	1.6	1.1	-4	18	10
23) CN(CCCN1CCOCC1)Cc1nc(-c2ccccc2)no1
  -12	0%	-4.4	1.5	0	-1.9	-4
24) COCCCNC(=O)c1ccc(N(C)S(C)(=O)=O)cc1
  u	u	3.3	2.1	-5	-1.3	-6
25) Cc1cccc([C@H]2[C@@H]3C=CCC[C@@H]3C(=O)N2Cc2ccccc2)c1
  x	-7%	x	x	x	1.4	1
26) Cc1ccc(-n2nc3c(c2NC(=O)CC(C)C)CS(=O)C3)cc1 (stereo not given)
  5	x	-1.9	-5.3	x	4.8	1
27) CC1CCN(C(=O)CSc2nnc(-c3cccnc3)o2)CC1
  42	x	4.8	1.1	0	0.8	-1
28) CCOC(CCn1c(SCc2cccc([N+](=O)[O-])c2)nc2ccccc2c1=O)OCC
  u	-5%	1.7	-2.7	-5	6.0	4
29) CCS(=O)(=O)c1nc(S(=O)(=O)c2ccc(Cl)cc2)c(NCCCN2CCCC2=O)s1
  3	x	1.6	4.2	-1	1.8	-4
30) Nc1nonc1-n1nnc(C(=O)N/N=C/c2cccc(Cl)c2)c1CSc1ccccc1
  -10	1%	-2.7	-1.1	0	3.2	8
31) Cc1c(OCc2nn[nH]n2)ccc2c3c(c(=O)oc12)CCC(C)C3 (stereo not given)
  -6	u	-0.7	u	98*	-5.4	-15
32) CCN(CC)c1ccc(N2C(=O)/C(=C\c3cccs3)SC2=S)cc1
  5	4%	0.4	-2.6	x	-1.0	3
33) COc1ccc(CCN(C)C(=O)c2c(C)nn(CC(C)C)c2Cl)cc1OC
  -9	x	5.1	-1.8	-1	5.2	-6
34) O=c1c2ccccc2ncn1CCOCCOc1ccc([N+](=O)[O-])cc1
  -14	x	1.4	1.1	x	-5.2	15
35) CC(=O)Nc1ccc(NC(=O)CSc2nnc3ccc(-c4ccccn4)nn23)cc1
  6	-4%	-2.6	7.0	-8	0.6	-5
36) N#CCC(=O)Nc1ncc(Cc2ccccc2Cl)s1
  -6	1%	33*	8.9	-7	4.3	5
37) O=C(Nc1cccc(N2C(=O)C=CC2=O)c1)c1cccs1
  7	x	x	0.5	x	-5.0	53*
38) O=C1CC(c2cccc(F)c2)SC(N(c2ccccc2)c2ccccc2)=N1 (stereo not given)
  11	2%	12	-2.0	1	2.6	11
39) CCCCn1c(NC(=O)CC)c(C#N)c2nc3ccccc3nc21
  6	-3%	-1.5	5.3	-1	0.5	-12
40) Cc1ccc(CNC(=O)COC(=O)c2ccc(S(=O)(=O)NCc3ccco3)cc2)cc1
  x	-5%	6.3	x	1	-0.5	-4
41) CCCCN(CC)Cc1ccc(CNC(=S)Nc2ccccc2F)o1
  -3	-11%	-0.3	-19	-3	0.9	3
42) CC(C)C1CC(CCNCc2ccc3c(c2)OCO3)(c2ccccc2)CCO1 (stereo not given)
  -8	x	0.0	-3.7	-2	1.7	13
43) CCC1=NN(C(=O)c2ccc(C)cc2)C(O)(c2ccc(Br)cc2)C1 (stereo not given)
  -18	-4%	-2.8	2.1	0	2.1	-5
44) COCCSc1ccccc1C(=O)Nc1nccs1
  52	-4%	4.8	2.5	2	-0.1	1
45) CC(=O)N(Cc1c(C#N)c2ccccc2n1C)c1ccccc1
  4	3%	0.6	7.4	-1	-3.9	-16
46) CN1CCc2c(c3ccccc3n2C)C1
  -21	-5%	-3.1	4.0	0	-3.6	2
47) Cc1c(Br)cnn1C(C)C(=O)N1CCN(c2ccccc2F)CC1 (stereo not given)
  x	x	0.7	x	-6	1.9	-3
48) O=C(COC(=O)Cc1ccc(Br)cc1)NCC1CCCCC1
  0	8%	-2.7	-0.6	-2	-1.0	1
49) COc1cc2c(c(O)c1OC)-c1c(cc(OC)c(OC)c1O)[C@@H](OC(=O)c1ccccc1)[C@@](C)(O)[C@@H](C)[C@@H]2OC(C)=O
  6	17%	x	0.7	x	x	x
50) CCOC(=O)N1CCC(Nc2c(NCCN3CCN(c4ccccc4F)CC3)c(=O)c2=O)CC1
  -11	-3%&-2%	1.7	0.7	2	6.4&-1.7	3&0
51) Cc1cccc(NC(=O)C2CC(O)CN2C(=O)OCc2ccccc2)c1 (stereo not given)
  -8	0%	-2.0	4.5	1	-0.5	-1
52) Cc1ccc(S(=O)(=O)CC(=O)NC(C)(C)C)cc1
  -5	-3%	0.2	0.4	-25	-2.4	0
53) CC(/C=C/C=C/c1ccccc1)=N/NC(=O)CNc1ccc(C)cc1
  3	18%	-0.6	-3.5	-3	-0.9	0
54) COC(=O)c1ccc(Cl)c(NC(=O)NC2CCCCC2)c1
  13	-3%	-0.6	4.1	0	-0.1	4
55) CC(=O)NCC(=O)NC1CCCc2c1cnn2-c1ccc(C(C)(C)C)cc1 (stereo not given)
  4	x	-5.2	0.4	x	2.1	14
56) COc1ccc(C2c3[nH]c4ccccc4c3C[C@H]3C(=O)N(C)CC(=O)N23)cc1OC (stereo not given in full)
  1	-2%	-0.6	-2.9	98*	0.5	-4
57) Cc1ccc2nsnc2c1NC(=S)NC(=O)c1ccco1
  20	3%	-1.5	-3.3	-43	3.2	-1
58) Fc1ccc(-c2ccc(NCCN3CCOCC3)nn2)cc1
  5	x	-9.9	-0.3	1	3.9	-2
59) O=C(NC1CCN(C(=O)Nc2ccccc2Cl)CC1)c1ccco1
  -2	x	2.5	-0.6	-1	-0.5	-1
60) CCc1ccc(OCC(=O)N/N=C\c2ccco2)c([N+](=O)[O-])c1
  17	x	2.1	6.2	96*	-8.6	-5

(listing goes on)
Values run as follows: Calb FLC	Vif TR-FRET	LANA-H2A inh	RanGTP-Imp inh	ALR H2O2 inh	HNF4A DNA FP	Beta2AR agonist
61) Cc1cc(C(=O)OCC(=O)Nc2ccccc2Br)c(C)o1
  x	2%	-1.3	x	-2	-5.4	-2
62) Cc1cc(NC(=O)CCC(=O)N(Cc2cccs2)C(C(=O)NC2CCCC2)c2ccncc2)no1 (stereo not given)
  -5	u	-0.5	1.5	2	-1.1	-6
63) COc1ccc(S(=O)(=O)N(CC(=O)NCc2ccco2)c2ccccc2OC)cc1
  6	x	-0.2	4.7	-12	-0.4	-1
64) Cc1c(C(=O)N2CCN(c3ccccc3)CC2)oc2c(F)cccc12
  14	x	-0.9	-0.3	9	0.4	9
65) Cc1cc(C)nc(SCc2cn3c(C)cccc3n2)n1
  -4	u	-7.3	-3.1	8	1.9	-3
66) c1ccc(Nc2nnc(SCc3cccc4ccccc34)s2)cc1
  1	2%	-3.6	-2.0	-12	-7.3	2
67) O=C(O)c1cccc(NC(=O)C2CCCO2)c1 (stereo not given)
  -21	1%	3.3	6.9	7	-2.0	5
68) O=C(O)CC(NC(=O)OCc1ccccc1)c1ccc(Br)cc1 (stereo not given)
  9	20%	1.4	-2.7	-5	2.9	-12
69) CC(C)C(=O)NC(c1cccc([N+](=O)[O-])c1)c1ccc2cccnc2c1O (stereo not given)
  6	9%	3.1	5.3	3	-2.0	6
70) Cc1ccc(-n2[nH]c(C)c(/C=N/Nc3ccc([N+](=O)[O-])cc3[N+](=O)[O-])c2=O)cc1
  -2	x	x	6.0	x	-0.4	18
